Screening data as filed in PubChem BioAssay.
HSV replic up: enhancers of HSV replication in host cells, fold increase, host cell viability; HSV replication augmentation in cells; maximum fold increase; 220,000 tested, 0.005% active;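 active = peak rise of 1.5-fold or more in the series; inconclusive = self-fluorescent or not available for retest; tested in PC3 cells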;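 also: first round at 10 µM; read as green reporter fluorescence; hits show the peak of a series up to 25 µM; 1 = signal of infected wells without compound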
GALR2 ag: GALR2 receptor agonists, primary screen, cell-based; Galanin receptor type 2 (Homo sapiens), O43603; GALR2-expressing cells, agonist activation read-out; activation, %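 (tested at 5 µM)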; 140,000 tested, 0.48% active;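 active = above mean plus 3 SD of all compounds, about 5% in these data, not always enough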;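 also: 0% = vehicle buffer wells and 100% = reference agonist at full effect; tested in CHO reporter cells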
Target sequence (O43603 whole entry, looked up): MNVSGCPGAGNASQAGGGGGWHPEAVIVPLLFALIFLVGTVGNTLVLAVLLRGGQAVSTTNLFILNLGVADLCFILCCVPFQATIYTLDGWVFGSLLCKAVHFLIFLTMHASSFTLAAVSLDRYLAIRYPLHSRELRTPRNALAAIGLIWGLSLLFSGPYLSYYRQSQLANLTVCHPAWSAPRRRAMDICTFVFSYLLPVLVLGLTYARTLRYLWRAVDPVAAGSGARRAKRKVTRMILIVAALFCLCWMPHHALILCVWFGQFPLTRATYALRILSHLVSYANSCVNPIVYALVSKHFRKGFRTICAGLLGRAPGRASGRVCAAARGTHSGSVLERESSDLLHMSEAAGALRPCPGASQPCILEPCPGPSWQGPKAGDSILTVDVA
PKD1 inh: inhibitors of human PKD1 kinase, biochemical, fluorescence polarization; Serine/threonine-protein kinase D1 (Homo sapiens), Q15139; PKD1 kinase fluorescence polarization assay; inhibition, %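 (about 10 µM by stock and volumes)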; 200,000 tested, 0.056% active;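 active = inhibition of 50% or more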;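 also: controls were vehicle for no effect and a reference inhibitor for full effect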
INS promoter inh: inhibitors of insulin promoter-driven GFP, primary screen, imaging, TRM-6 cells (human fetal islet line), eGFP reporter, cell count. reporter expression induced with tamoxifen. inhibition, % at 2 µM. 130,000 tested, 0.9% active. AID 1273, 2008;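 active = inhibition above the mean plus 3 SD, with well images judged a real hit on visual review, cut at about 60% in these data, passing the limit was not always enough; inconclusive = inhibition over the cutoff but images rejected on review; inactive = inhibition not above the cutoff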
RGS16-Gao: modulators of RGS16 binding to Galphao, primary screen, biochemical, human proteins, multiplexed bead flow cytometry; Regulator of G-protein signaling 16 (Homo sapiens) + Guanine nucleotide-binding protein …; bead-based flow cytometry RGS16-Galphao binding, fluorescence; actives lie on both sides; binding response (% of control), % at 10 µM; AID 1441, 2008; 220,000 tested, 0.38% active;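 active = below 25% or above 175%, edge rows of some plates excepted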;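 also: Galphao activated by GDP with aluminum fluoride before binding; 100% = wells without compound and 0% = beads without RGS; some results beyond the cut were filed as inactive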
Target sequence (O15492 whole entry, looked up): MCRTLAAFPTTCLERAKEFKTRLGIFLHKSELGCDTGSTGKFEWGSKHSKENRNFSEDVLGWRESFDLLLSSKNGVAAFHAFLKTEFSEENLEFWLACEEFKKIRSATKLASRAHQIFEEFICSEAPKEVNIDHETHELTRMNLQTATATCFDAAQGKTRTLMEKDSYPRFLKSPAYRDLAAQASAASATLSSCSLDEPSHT
Target sequence (P09471 whole entry, looked up): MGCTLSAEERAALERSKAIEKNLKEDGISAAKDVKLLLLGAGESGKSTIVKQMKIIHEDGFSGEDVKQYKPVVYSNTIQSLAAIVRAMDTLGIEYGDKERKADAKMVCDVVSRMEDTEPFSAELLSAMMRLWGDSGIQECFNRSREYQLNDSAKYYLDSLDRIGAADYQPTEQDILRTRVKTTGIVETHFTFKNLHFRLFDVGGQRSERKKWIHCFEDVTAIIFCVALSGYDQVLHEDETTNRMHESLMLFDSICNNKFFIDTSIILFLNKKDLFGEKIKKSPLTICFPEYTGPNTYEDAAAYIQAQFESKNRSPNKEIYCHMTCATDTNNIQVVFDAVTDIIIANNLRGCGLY
INS promoter inh cell count: also measured in INS promoter inh; calls as there; normalized cell count, %; measured here: cell count, toxicity; reference of the scale not given here;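 cells exposed to compound for 48 h; stained nuclei by imaging scaled within each plate; lower means fewer cells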
HSV replic up primary fold: further read-out of HSV replic up, marked with its call; fold increase; compound at 10 µM; measured here: primary screen fold increase 10 uM; tested in PC3 cells;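 GFP signal in the first replicate; 1 = infected wells without compound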
The depositor's hits bear a star; i = inactive; ? = inconclusive; nt = not tested or not shown.

Values run as follows: HSV replic up, HSV replic up primary fold, GALR2 ag, PKD1 inh, INS promoter inh, INS promoter inh cell count, RGS16-Gao
#1 Cc1cc(=O)n2c3ccccc3n(CC(O)CN3CCCCC3)c2c1C#N (stereo not given)
    i, 0.86, -1.4, -9, nt, nt, 115
#2 CCCCCc1cc(=O)oc2c(C(CCN(CC)CC)c3ccc(OC)cc3)c(OC)cc(OC)c12 (stereo not given)
    i, 0.73, nt, nt, nt, nt, 96
#3 COc1cccc(OC)c1OCC(C)CNCC1CCCO1 (stereo not given)
    i, 1.1, -3.5, -2, -25, 79, 98
#4 COc1cc(SC)ccc1C(=O)Nc1ncc(Cl)cc1Cl
    i, 0.85, nt, 3, -42, 50, 109
#5 CCOC(=O)c1[nH]c2ccc(C)cc2c1NC(=O)CN1CCCCC1
    i, 0.93, -1.0, -4, -68, 102, 110
#6 CCCCn1c(SCC(=O)NCc2ccco2)nc2c(sc3ccccc32)c1=O
    i, 0.89, -1.2, -3, 14, 108, 92
#7 O=C(NCCc1ccc(Cl)cc1)c1cc2ccccn2n1
    i, 0.98, nt, nt, nt, nt, 107
#8 Cc1ccc(Sc2ccc(/C=C3/C(=O)NN(c4ccccc4)C3=O)o2)cc1
    i, 0.86, nt, nt, nt, nt, 99
#9 c1ccc(CSc2ccc(-c3cccs3)nn2)cc1
    i, 0.86, -2.0, -10, 42, 128, 101
#10 CC1CCN(C(=O)c2cc(-c3ccccc3O)on2)CC1
    i, 0.97, -1.0, 1, nt, nt, 106
#11 CCCCOc1cc(=O)[nH]c(=O)[nH]1
    i, 0.82, -0.6, 3, -37, 207, 114
#12 Cc1ccc2nc(/C(C#N)=C\c3ccc(N4CCOCC4)o3)[nH]c2c1
    ?, nt, -0.4, -13, -456, 68, 100
#13 O=C(NCc1ccco1)c1ccc(Cl)c(S(=O)(=O)N2CCOCC2)c1
    i, 1, -2.3, -4, 46, 91, 130
#14 COc1ccc(N2C(=O)C(F)(F)C2c2ccccc2F)cc1 (stereo not given)
    i, 0.99, nt, -4, 0, 139, 102
#15 CN(C)CCCNC(=O)C(=O)NCC1CCCO1 (stereo not given)
    i, 1.3, nt, -5, -294, 64, 100
#16 CC1(C)CC(=O)c2sc(N3CCCCC3)nc2C1
    i, 1, -1.8, -7, -9, 93, 111
#17 Cc1cc(=O)[nH]c(SCC(=O)Nc2ccccc2C#N)c1C#N
    i, 1.2, -0.7, -6, -14, 52, 101
#18 CCOC(=O)c1ccc(NC(=O)CSc2nnc(NC(=O)c3ccc(S(=O)(=O)N4CCOCC4)cc3)s2)cc1
    i, 0.99, -0.8, -16, -20, 131, 122
#19 COc1ccc(N(CC(=O)Nc2cc(C)on2)S(=O)(=O)c2ccc(Cl)cc2)cc1
    i, 0.99, 0.0, 1, -7, 118, 108
#20 Fc1ccc(Oc2cnns2)cc1
    i, 0.85, nt, -6, -44, 174, 107
#21 COc1ccccc1CN1C(=O)C(=O)N(Cc2cccc(C)c2)C1=O
    i, 1, nt, 5, nt, nt, 101
#22 CCOC(=O)C1(O)CC(C)=NN1C(=O)c1cccc(Br)c1 (stereo not given)
    i, 0.99, nt, -10, nt, nt, 106
#23 Clc1ccccc1CSc1nnc(Cn2cnc3ccccc32)n1-c1ccccc1
    i, 0.92, -1.1, 4, -35, 144, 99
#24 CC(C)c1ccc2[nH]c(O)c(N=NC(=O)c3cccc(S(=O)(=O)Nc4cccc(Cl)c4)c3)c2c1
    i, 0.82, nt, nt, nt, nt, 96
#25 CC(C)(C)n1ncc2c(=O)n(CC(=O)NCc3ccccc3Cl)cnc21
    i, 1, -2.5, 3, 20, 112, 107
#26 Nc1nc(CN2CCN(Cc3ccccc3)CC2)nc(N2CCCc3ccccc32)n1
    i, 0.9, nt, 7, nt, nt, 104
#27 CN(C)S(=O)(=O)c1ccc(C(=O)Nc2cccc(S(=O)(=O)NC3=NCCC3)c2)cc1
    ?, nt, nt, nt, nt, nt, 99
#28 O=C(COC(=O)c1cc(Br)ccc1O)Nc1cc(S(=O)(=O)N2CCCC2)ccc1Cl
    i, 0.97, nt, 2, -9, 82, 98
#29 Cc1c(C(=O)Nc2ccc(-c3nnc4n3CCCCC4)cc2)oc2ccc(Br)cc12
    i, 0.72, -0.5, -1, 7, 132, 107
#30 CCOc1ccc(C(=O)Nc2cccc3nsnc23)cc1[N+](=O)[O-]
    i, 0.94, nt, -8, 33, 165, 98

A draw from above in order of heavy-atom count, smallest number first.
Values run as follows: HSV replic up, HSV replic up primary fold, GALR2 ag, PKD1 inh, INS promoter inh, INS promoter inh cell count, RGS16-Gao
#20 Fc1ccc(Oc2cnns2)cc1
    i, 0.85, nt, -6, -44, 174, 107
#22 CCOC(=O)C1(O)CC(C)=NN1C(=O)c1cccc(Br)c1 (stereo not given)
    i, 0.99, nt, -10, nt, nt, 106
#17 Cc1cc(=O)[nH]c(SCC(=O)Nc2ccccc2C#N)c1C#N
    i, 1.2, -0.7, -6, -14, 52, 101
#30 CCOc1ccc(C(=O)Nc2cccc3nsnc23)cc1[N+](=O)[O-]
    i, 0.94, nt, -8, 33, 165, 98
#21 COc1ccccc1CN1C(=O)C(=O)N(Cc2cccc(C)c2)C1=O
    i, 1, nt, 5, nt, nt, 101
#25 CC(C)(C)n1ncc2c(=O)n(CC(=O)NCc3ccccc3Cl)cnc21
    i, 1, -2.5, 3, 20, 112, 107
#19 COc1ccc(N(CC(=O)Nc2cc(C)on2)S(=O)(=O)c2ccc(Cl)cc2)cc1
    i, 0.99, 0.0, 1, -7, 118, 108
#28 O=C(COC(=O)c1cc(Br)ccc1O)Nc1cc(S(=O)(=O)N2CCCC2)ccc1Cl
    i, 0.97, nt, 2, -9, 82, 98
#26 Nc1nc(CN2CCN(Cc3ccccc3)CC2)nc(N2CCCc3ccccc32)n1
    i, 0.9, nt, 7, nt, nt, 104
#24 CC(C)c1ccc2[nH]c(O)c(N=NC(=O)c3cccc(S(=O)(=O)Nc4cccc(Cl)c4)c3)c2c1
    i, 0.82, nt, nt, nt, nt, 96
#18 CCOC(=O)c1ccc(NC(=O)CSc2nnc(NC(=O)c3ccc(S(=O)(=O)N4CCOCC4)cc3)s2)cc1
    i, 0.99, -0.8, -16, -20, 131, 122

(next part)
Values run as follows: HSV replic up, HSV replic up primary fold, GALR2 ag, PKD1 inh, INS promoter inh, INS promoter inh cell count, RGS16-Gao
#31 O=C(CCCC(=O)OCC(Cl)=C(Cl)Cl)Nc1ccccc1F
    i, 0.95, -0.4, 0, nt, nt, 99
#32 COC(=O)CN1C(=O)Nc2ccc(C)cc2C1c1ccccc1 (stereo not given)
    i, 1, nt, 0, nt, nt, 97
#33 O=C(CN1c2ccccc2Sc2ccccc21)NNC(=O)Nc1ccc(Cl)c(Cl)c1
    i, 1, nt, nt, nt, nt, 99
#34 COCCNC(=O)C1=NOC(Cn2cc(C#N)c(=O)n(C)c2=O)C1 (stereo not given)
    i, 0.95, nt, -3, nt, nt, 100
#35 CC1Cc2ccccc2N1S(=O)(=O)c1c(N)n(C)c(=O)n(C)c1=O (stereo not given)
    i, 1.1, nt, 7, nt, nt, 104
#36 O=C(N/N=C/c1cccs1)c1cccc(NC(=O)c2ccc(Cl)cc2)c1
    i, 0.56, -0.8, 2, 7, 70, 101
#37 CCOC(=O)N1CCN(C(=O)CCS(=O)(=O)c2ccc(Br)s2)CC1
    i, 0.79, -6.2, -3, nt, nt, 95
#38 COc1ccc(/C=N/N=C2/NC(=O)C(CC(=O)O)S2)cc1OS(=O)(=O)c1ccccc1 (stereo not given)
    i, 0.61, nt, 4, nt, nt, 100
#39 Cc1ccc(C(=O)NCCCNc2ccc(C(F)(F)F)cc2[N+](=O)[O-])cc1
    i, 0.96, -0.9, -13, -36, 90, 109
#40 COC(=O)Cn1c(CCC(=O)O)ccc1-c1ccccc1
    i, 0.84, 0.6, -9, nt, nt, 88
#41 CCC1CCCCN1CCCNC(=O)CC1Oc2ccc(C)cc2NC1=O (stereo not given)
    i, 1.1, -1.0, -9, -171, 92, 97
#42 CCCN1CCN(CCCNC(=O)c2cc3c(=O)[nH]c4ccccc4c3s2)CC1
    i, 0.84, nt, -7, nt, nt, 101
#43 CCOC(=O)c1cccc(NC(=O)CSc2nnc(-c3ccoc3C)n2CC)c1
    i, 1, -1.0, 4, nt, nt, 100
#44 O=C1c2cccc3c(N4CCCCC4)ccc(c23)C(=O)N1c1ccccc1O
    ?, nt, nt, -6, nt, nt, 113
#45 CSc1nc2ccccc2n1Cc1cccc(F)c1
    i, 0.97, -1.5, 0, -40, 79, 125
#46 N#Cc1c(N)nc(SCc2ccccn2)c(C#N)c1-c1cccs1
    i, 0.91, 0.4, -12, -71, 67, 95
#47 Cc1cccc(OCC(=O)NCC(=O)N/N=C/c2cccs2)c1
    i, 0.99, -0.7, -2, nt, nt, 101
#48 CC(=O)Nc1nc2nc(-c3ccccc3)cc(-c3ccccc3)n2n1
    i, 0.84, -0.5, -9, 4, 98, 106
#49 COc1c2ccoc2c(OC[C@@H](O)C(C)(C)O)c2oc(=O)ccc12
    i, 0.83, -0.6, -3, -29, 98, 97
#50 c1cc(CNCC2CCCO2)ccn1 (stereo not given)
    i, 0.98, nt, -1, 33, 70, 104
#51 COc1cc(C(=O)NNC(=O)c2ccoc2C)cc(OC)c1OC
    i, 1, nt, 0, -27, 93, 105
#52 Cc1cccc(NC2SC(=O)N(c3ccccc3)C2=O)c1 (stereo not given)
    i, 1, -1.9, -1, -30, 133, -265
#53 COc1ccc(C(=O)N2CCN=C2SC)cc1
    i, 0.95, nt, 1, nt, nt, 89
#54 N=c1c2c(-c3ccccc3)c(-c3ccccc3)n(Cc3ccccc3)c2ncn1CCO
    i, 0.54, 1.7, -15, -58, 51, 103
#55 Cc1ccc(C(=O)/C=C/C(=O)O)cc1
    i, 0.99, -0.8, 0, 33, 114, 88
#56 CCNc1nc(N2CCCCC2)nc(-n2nnc(C(=O)OCC)c2C)n1
    i, 0.8, -0.4, -14, -11, 119, 122
#57 OCCC1CN(Cc2cc3c(cc2Cl)OCO3)CCN1Cc1ccccc1 (stereo not given)
    i, 0.9, nt, -1, nt, nt, 96
#58 O=C(Nc1ccc(Cl)c([N+](=O)[O-])c1)C(Sc1ccccc1)c1ccccc1 (stereo not given)
    i, 0.66, -1.6, -11, 42, 100, 101
#59 CN(C)CCCNC(=O)Cc1ccc(Br)cc1
    i, 0.79, -1.9, -2, 58, 50, 99
#60 CC(C)(C)c1ccc(OCC(O)CNC(=O)c2ccccc2C(=O)O)cc1 (stereo not given)
    i, 0.95, -0.1, 0, -37, 67, nt
#61 CCOC(=O)CSc1nc2cc3c(cc2cc1CC)OCCO3
    i, 0.91, -2.3, 3, 31, 99, 98
#62 COC(=O)C(C)(C)ONC(=O)Nc1ccc([N+](=O)[O-])cc1
    i, 0.97, nt, -5, nt, nt, 101
#63 CC(C)CCn1c(Sc2nc3ccccc3o2)nc2c1c(=O)[nH]c(=O)n2C
    i, 0.6, -0.9, 17, 53, 92, 97
#64 O=C(CN1CCN(c2ccccc2)CC1)Nc1nnc(-c2ccccc2)s1
    nt, nt, -3.2, 4, 31, 94, 99
#65 O=C(O/N=C\c1ccc(N2CCCCC2)c([N+](=O)[O-])c1)c1ccc(Cl)cc1Cl
    nt, nt, -3.0, 5, nt, nt, 98
#66 COc1ccc(-n2c(SCc3cccnc3)nc3c(c2=O)SCC3)cc1OC
    i, 1, nt, -6, 29, 60, 96
#67 C=CCN(CC=C)S(=O)(=O)c1ccc(NC(=S)NC(=O)c2ccco2)cc1
    i, 0.82, -2.2, -3, -43, 62, 103
#68 CCN(CC)C(=O)COc1ccc(-c2nnc(N3CCCCC3)c3ccccc23)cc1
    i, 1.1, 0.1, 1, 45, 144, 101
#69 CSCCC(NC(=O)c1ccc(Cl)cc1)C(=O)NC(C)(C)C (stereo not given)
    i, 1, 1.0, -1, -4, 95, 104

No enrichment for hits. Share with any hit: about 1.3%.
